Source: PubChem (National Center for Advancing Translational Sciences (NCATS))
RE007 growth inh: less growth of the S. pombe RE007 Vpr strain. S. pombe RE007 Vpr strain, BacTiter-Glo ATP luminescence, 24 h; control for the full effect not named in the record. Potency, µM (doses to about 92.2 µM), for inactives: at the highest dose activity change, negative = less growth. 360,000 compounds, 0.21% hits. AID 651644; active = well fitted falling curve with a large enough effect; inconclusive = small, poorly fitted or top-dose-only effect; inactive = no such curve, though single readings can be large or run the other way;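 further: on the % scale 0 is the no-effect control and ±100 the full control effect; nearly all actives have a fitted effect of over 50% in size; the assay follows cell death caused by Vpr and the record does not say whether a fall means rescue or toxicity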
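Fission yeast RE007 carrying one integrated HIV-1 vpr copy, seeded at OD 0.01 in PMG+AL medium with 23 nL pinned compound. Grown 24 h at 30 degrees; viability read by BacTiter-Glo luminescence after 5 min.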
Cruzain inh noDet: inhibitors of Trypanosoma cruzi cruzain without detergent; P25779; purified cruzain, Z-FR-AMC fluorescence, no detergent; Potency, µM, for inactives: max response, negative = inhibition, most hits filed as inhibitors; 200,000 compounds, 2.3% hits;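 further: plate controls were enzyme without inhibitor for no effect and buffer without enzyme for full effect; nearly all actives have a fitted effect of over 40% in size; top concentration of the series not given in the record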
Target sequence (P25779 123-467 limits assumed): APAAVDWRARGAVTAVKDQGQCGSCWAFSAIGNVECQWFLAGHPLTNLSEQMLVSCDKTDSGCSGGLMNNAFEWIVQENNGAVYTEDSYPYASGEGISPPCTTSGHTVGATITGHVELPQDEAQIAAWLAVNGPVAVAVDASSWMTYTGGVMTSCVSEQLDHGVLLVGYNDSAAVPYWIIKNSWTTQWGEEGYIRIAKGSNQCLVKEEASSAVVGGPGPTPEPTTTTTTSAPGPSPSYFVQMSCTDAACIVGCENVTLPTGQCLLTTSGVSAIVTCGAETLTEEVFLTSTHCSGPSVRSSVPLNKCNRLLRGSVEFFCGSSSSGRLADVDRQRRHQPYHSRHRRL
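Purified cruzain at 1.5 nM, pre-incubated 15 min with compound at room temperature in 100 mM sodium acetate pH 5.5, 5 mM DTT, 0.00005% Triton X-100. Reaction started with 2 uM Z-FR-AMC; AMC fluorescence increase over 60 s gives rate.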
NS1 function inh: influenza NS1 inhibition; Potency, µM (titrated, usually from 46.1 µM), for inactives: at the top dose activity, positive = more growth; 270,000 compounds, 0.4% hits; AID 2326; S. cerevisiae slowed by influenza A NS1, growth recovery by OD600; active means well fitted rising curve with a large enough effect; inconclusive means small, poorly fitted or top-dose-only effect; inactive means no such curve, though single readings can be large or run the other way; further: nearly all actives have a fitted effect of over 50% in size
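Recovery from NS1-induced slow growth read by OD600 in budding yeast switched to galactose assay medium (pH 6.0, -URA) at 1:100 dilution. Compound 23 nl per well; the matching strain lacking NS1 serves as control.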
SARS PLP yeast: inhibitors of SARS-CoV papain-like protease in yeast. S. cerevisiae expressing SARS-CoV PLpro, growth rescue; control for the full effect not named in the record. Potency, µM (top dose mostly 32.9 µM), without a hit: top-dose activity, positive = growth rescue. AID 485353. 330,000 compounds, 0.19% hits; active means well fitted rising curve with a large enough effect; inconclusive means small, poorly fitted or top-dose-only effect; inactive means no such curve, though single readings can be large or run the other way; further: 0% is about no effect; nearly all actives have a fitted effect of over 55% in size; growth read by luminescence after 48 h
Lassa entry inh: blocks Lassa virus binding to or entry into cells; Lassa virus pseudotype entry inhibition, cell reporter; control for the full effect not named in the record; Potency, µM (series often up to 37.9 µM), without a hit: at the top dose activity change, negative = inhibition, actives largely listed as inhibitors; 300,000 compounds, 1.2% hits; AID 540256; active means well fitted inhibition curve with a large enough effect; inconclusive means small, poorly fitted or top-dose-only effect, or effect the other way; inactive means flat fitted curve, though single readings scatter; tested in HEK293 cells; further: on the % scale 0 is the no-effect control and ±100 the full control effect; nearly all actives have a fitted effect of over 50% in size; luciferase read-out
MARV entry inh: Marburg virus entry inhibition; Marburg virus pseudotyped entry inhibition, cell reporter; control for the full effect not named in the record; about a third of the inactives were read at about 46 µM; Potency, µM (top dose mostly 37.8 µM), inactives show at the top dose activity change, negative = inhibition, most hits filed as inhibitors; 300,000 compounds, 1.8% hits; AID 540276; active = well fitted inhibition curve with a large enough effect; inconclusive = small, poorly fitted or top-dose-only effect, or effect the other way; inactive = flat fitted curve, though single readings scatter; tested in HEK293 cells; about a fifth of its hits are not listed in these tables; further: on the % scale 0 is the no-effect control and ±100 the full control effect; luciferase read-out
Cruzain inh Det: cruzain (T. cruzi) inhibition with detergent. purified cruzain, Z-FR-AMC fluorescence, 0.01% Triton. Potency, µM, for inactives: max response, negative = inhibition, most hits filed as inhibitors. 200,000 compounds, 0.43% hits. AID 1478;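 further: plate controls were neutral wells for no effect and buffer without enzyme for full effect; nearly all actives have a fitted effect of over 40% in size; top concentration of the series not given in the record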
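In this qHTS format, compounds are incubated with 1.5 nM cruzain for 15 min at room temperature before 2 uM Z-FR-AMC is added. Release of AMC is followed at 360/450 nm, and progress is taken as the 60 s fluorescence difference.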
2A StopGo: FMDV 2A StopGo reporter, luciferase signal; human cells with a luciferase reporter of 2A StopGo recoding; control for the full effect not named in the record; Potency, µM (top dose mostly 57.9 µM), without a hit: top-dose signal change, negative = less light; 410,000 compounds, 1.2% hits; AID 1159524; active = well fitted falling curve with a large enough effect; inconclusive = small, poorly fitted or top-dose-only effect; inactive = no such curve, though single readings can be large or run the other way; tested in HEK293T cells; further: on the % scale 0 is the no-effect control and ±100 the full control effect; nearly all actives have a fitted effect of over 45% in size; luciferase light after 4 h
* hit, by the source's call; u = inconclusive; x = not tested or not shown; & = joins results of further samples; [ ] = another dose, or the depositor's remark. Unless noted, the call rests on the fitted dose curve; in most records, active means well fitted curve in the direction sought with a large enough effect; inconclusive means small, poorly fitted or top-dose-only effect, or another doubt; inactive means no such curve, though single readings can be large; an effect the other way counts as inactive or inconclusive. Potency means the concentration at half of the fitted maximal effect.

SMILES	RE007 growth inh	Cruzain inh noDet	NS1 function inh	SARS PLP yeast	Lassa entry inh	MARV entry inh	Cruzain inh Det	2A StopGo
C=CCSC(=C(C#N)C#N)c1cc2c([nH]1)CCCC2	-19%	-25%	-135%	-29%	11µM*	u	-12%	11µM*
COc1ccc(S(=O)(=O)Cc2ccc(C(=O)NCc3cccs3)o2)cc1	4%	5%	-4%	4%	x	x	0.3%	u
O=C(NCCCN1CCCC1=O)c1cccc(NS(=O)(=O)c2ccccc2)c1	3%	x	x	-5%	2%	-18%	x	-11%
O=C(C(NS(=O)(=O)c1cccs1)c1ccccc1)N1CCN(c2ccccc2)CC1 (stereo unspecified)	-14%	u	u	-2%	-20%	-11%	-7.6%	17%
O=C(OCC(=O)N1CCCCC1)c1cc(S(=O)(=O)N2CCOCC2)c(Cl)cc1Cl	0%	x	x	4%	u	-2%	x	u
Cc1ccc(N(CC(=O)N2CCOCC2)S(C)(=O)=O)cc1	8%	x	11%	0%	24%[46.1 µM]	10%[46.1 µM]	x	17%
CCOc1ccc(CNC(=O)C2Cc3ccccc3N2C(=O)CC)cc1 (stereo unspecified)	x	8%	x	x	-21%[46.1 µM]	x	1.5%	-14%
CC(=O)NCCc1nc2ccccc2n1CCCCOc1ccccc1	-4%	x	-2%	-2%	x	x	x	-2%
Cc1ccc(CN2C(=O)C(C)Oc3ccccc32)cc1 (stereo unspecified)	-1%	x	-4%	-3%	x	x	x	-18%
O=C(Cn1cnc2ccccc2c1=O)N1CCc2ccccc2C1	30%	x	x	1%	7%[46.1 µM]	-1%[46.1 µM]	x	9%
CCOCCCNC(=O)C(NC(=O)CNC(=O)c1ccccc1)c1ccccc1 (stereo unspecified)	6%	-3%	3%	2%	14%	3%	-7.8%	19%
Cc1ccc(S(=O)(=O)N2CCC(=O)N(C(COCc3cccc(C(F)(F)F)c3)C(C)C)CC2)cc1 (stereo unspecified)	8%	u	-34%	-9%	u	13µM*	-8.5%	u
CCC1(C)Cc2ccccc2C(=S)N1 (stereo unspecified)	10%	x	-1%	1%	11%[46.1 µM]	u	x	7%
Cc1ccc(S(=O)(=O)Nc2ccc3[nH]c(=O)[nH]c3c2)c(C)c1	0%	x	-9%	0%	-38%	u	x	-17%
COc1ccccc1N(CCC#N)C(=O)CSc1nnc2ccccn12	12%	x	x	1%	0%	1%	x	-8%
Cc1cc2ccccc2n1CCNC(=O)C1CC1	1%	x	u	5%	x	x	x	u
CCOc1cc(C(c2c(C)[nH][nH]c2=O)c2c(C)[nH][nH]c2=O)ccc1OCc1ccc([N+](=O)[O-])cc1	0%	-2%	23%	-5%	4%	20%	-1.5%	u
O=S(=O)(NCc1ccccc1Cl)c1cnc[nH]1	-5%	-5%	-3%	0%	6%	u	4.0%	3%
O=C(O)C(Cc1ccccc1)n1cccc1 (stereo unspecified)	-1%	5%	0%	-1%	-2%	u	-0.3%	-16%
O=C(NC1CCCCC1)C1CCN(S(=O)(=O)c2cccc3nsnc23)CC1	-8%	-7%	-7%	-2%	5%	u	3.8%	5%
Cc1onc(-c2ccccc2)c1C(=O)Nc1nnc(COc2ccc(Cl)cc2)s1	u	u	u	-11%	-9%	1%[46.1 µM]	-7.1%	u
O=C(c1cc(-c2cccs2)on1)N1CCOCC1	4%	1%	0%	0%	u	7%	0.7%	0%
CC(C)(C)c1ccc(C(=O)NC(=S)Nn2cnnc2)cc1	0%	1%	18%	-13%	u	u	-0.1%	3%
Cc1cc(C(F)(F)F)c2c(=O)[nH]c(=O)n(Cc3ccccc3)c2n1	15%	-5%	-1%	5%	0%	-9%	-7.9%	-18%
CCOC(=O)Nc1nnc(-c2ccc(OC)c(OC)c2)s1	4%	u	-13%	-2%	16%	2%	2.2%	-19%
CCc1ccc(CNC(=O)C2CCCN(c3nn4c(=O)cc(C)nc4s3)C2)cc1 (stereo unspecified)	-12%	x	-10%	1%	x	x	x	-15%
CCc1ccc(C2CC(=O)c3c([nH]c(C(=O)OC4CCCC4)c3C)C2)cc1 (stereo unspecified)	x	-10%	x	x	13%[46.1 µM]	25%[46.1 µM]	-0.9%	-3%
CC1=[N+](CC(=O)NC(C)(C)C)CCc2ccccc21	8%	0%	-1%	2%	-2%	-13%	1.8%	-23%
C=CCn1c(=O)c(CCC(=O)Nc2ccc(N3CCOCC3)cc2)nc2cc(C(F)(F)F)ccc21	-4%	x	2%	0%	u	-2%[46.1 µM]	x	8%
COC(=O)C1=C(CN2CCSCC2)NC(=O)NC1c1cc(C)ccc1C (stereo unspecified)	-8%	-2%	-12%	2%	-12%	-14%[46.1 µM]	3.6%	-20%
NC(=O)COc1ccc(=O)n(-c2ccccc2)n1	-10%	1%	6%	4%	x	-1%	0.2%	0%
Cc1ccccc1C(=O)N1CCCC(CCC(=O)N2CCN(c3ccccn3)CC2)C1 (stereo unspecified)	-12%	x	-5%	-5%	-27%[46.1 µM]	u	x	-19%
CCCCN(CCCC)S(=O)(=O)c1ccc2[nH]c(=O)[nH]c2c1	6%	3%	-7%	-1%	4%	0%	1.8%	-17%
COc1cccc(C(=O)N2CCN(C(=O)c3ccc(-c4ccccc4)cc3)CC2)c1OC	0%	x	-6%	-1%	-11%	0%[46.1 µM]	x	-16%
COc1ccc(C(=O)NCC(=O)N=Nc2c(O)n(C)c3ccccc23)cc1OC	0%	x	3%	1%	x	x	x	-9%
COC(=O)C1C(=O)C2=C(CC1C)NC(C)=C(C(=O)OCCOc1ccccc1)C2c1ccc(C)o1 (stereo unspecified)	4%	u	9%	4%	u	u	-9.4%	-20%
Oc1cccc(Nc2nc(-c3ccccc3)nc3ccccc23)c1	-14%	-9%	-10%	-8%	u	u	-16%	u
O=C(NNS(=O)(=O)c1ccc(Cl)cc1Cl)c1cc2ncc(C(F)(F)F)cc2s1	1%	x	0%	-1%	-1%	16%[14.2 µM]	x	-20%
COc1cccc(Nc2ncccc2C(=O)NCc2ccccc2)c1	-14%	u	-49%	-16%	-11%	13%	-8.9%	9%
Cn1nc(SCC(=O)O)sc1=S	-12%	1%	8%	-1%	-9%	11%	-1.8%	3%
COC(=O)c1ccccc1NC(=O)COc1ccc(S(=O)(=O)N2CCCC2)cc1C	-10%	7%	-16%	2%	-15%	-3%&-25%	4.1%	7%
Cc1ccc(Oc2nc3ccccn3c(=O)c2/C=C(\C#N)C(=O)NC2CCS(=O)(=O)C2)c(C)c1 (stereo unspecified)	-14%	x	1%	3%	x	x	x	u
CCCCC/C(=N\O)c1c[nH]c2ccccc12	-25%	6%	-110%	-12%	-25%	5%	-9.5%	x
COc1cccc(NC(=O)CSc2nnc3cc(C)nc(N)n23)c1	0%	x	0%	0%	-4%	1%[46.1 µM]	x	9%
Cc1cc(C)cc(C(=O)NCC(=O)OCC(=O)N(C)C2CCS(=O)(=O)C2)c1 (stereo unspecified)	1%	-13%	4%	-5%	0%	u	-22%	-28%
Cc1cccc(-c2noc(CN(C(=O)COc3ccc(Br)cc3C)C(C)C)n2)c1	x	1%	x	x	-7%[46.1 µM]	-6%[46.1 µM]	-3.4%	-29%
CCOC(=O)N1CCN(C(=O)C(C)c2ccc([N+](=O)[O-])cc2)CC1 (stereo unspecified)	-6%	x	-2%	27%	10%	u	x	-3%
O=C(N/N=C/c1cn(Cc2ccccc2)c2ccccc12)c1cc(O)cc(O)c1	14%	x	14µM*	4%	x	x	x	-23%
COc1cccc(N2CC(NC(=O)CCCc3ccccc3)CC2=O)c1 (stereo unspecified)	x	7%	x	x	2%[46.1 µM]	x	-1.6%	-12%
C=CCNC(=S)NC(=O)c1ccc(C)c(Br)c1	u	x	-35%	-3%	x	x	x	18%
CC(NC(=O)CCC(=O)N1CCN(S(=O)(=O)c2ccc(Cl)cc2)CC1)c1ccccc1 (stereo unspecified)	13%	u	-19%	-19%	u	u	-2.9%	-13%
CC(C)Oc1ccc(Cc2n[nH]c(=S)n2Cc2ccccc2)cc1Cl	23%	x	16%	3%	x	x	x	-21%
O=C(Cn1cnc2ccccc21)OCC(=O)N1CCCc2ccccc21	18%	9%	-12%	-1%	0%	-22%	1.7%	u
CCc1ccc(NC(=O)NCc2ccc3c(c2)OCO3)cc1	8%	x	-3%	3%	x	x	x	-2%
O=C(C1CCC(=O)N(C2CC2)C1)N1CCC(Oc2ccccc2F)CC1 (stereo unspecified)	-13%	x	3%	-7%	1%	u	x	-13%
CCc1ccccc1N(C1=NCCCS1)S(=O)(=O)c1ccc(C(C)(C)C)cc1	5%	-22%	21%	-50%	-25%	u	-6.2%	-13%
O=C(NN=C1CCCC1)c1n[nH]c2c1CCCC2	-14%	x	5%	17%	-4%	-37%	x	-19%
COc1ccc(N(CC(=O)Nc2cccc(N(C)S(C)(=O)=O)c2)S(C)(=O)=O)cc1OC	5%	-3%	2%	11%	14%	-1%	1.2%	x
Cc1ccc(NC(=O)CCc2ccc(S(=O)(=O)NC3CCCCC3)cc2)cc1	17%	-4%	4%	3%	-13%	u	-0.5%	4%

Four of the compounds above, as comma-separated lines:
SMILES,RE007 growth inh,Cruzain inh noDet,NS1 function inh,SARS PLP yeast,Lassa entry inh,MARV entry inh,Cruzain inh Det,2A StopGo
Cc1ccc(Oc2nc3ccccn3c(=O)c2/C=C(\C#N)C(=O)NC2CCS(=O)(=O)C2)c(C)c1 (stereo unspecified),-14%,x,1%,3%,x,x,x,u
CCCCC/C(=N\O)c1c[nH]c2ccccc12,-25%,6%,-110%,-12%,-25%,5%,-9.5%,x
COc1cccc(NC(=O)CSc2nnc3cc(C)nc(N)n23)c1,0%,x,0%,0%,-4%,1%[46.1 µM],x,9%
Cc1cc(C)cc(C(=O)NCC(=O)OCC(=O)N(C)C2CCS(=O)(=O)C2)c1 (stereo unspecified),1%,-13%,4%,-5%,0%,u,-22%,-28%
